Bioassay records (PubChem BioAssay)
Menin MLL FP FL – qHTS Assay for Inhibitors Targeting the Menin-MLL Interaction in MLL Related Leukemias: Competition With Fluorescein Labeled MLL-derived Peptide; 290,000 tested, under 10 active; AID 1766, 2009; FP activity change, % at 61.4 µM; Fluorescence polarization, fluorescein-MLL peptide displacement from menin; inconclusive = falling polarisation curve, or a change in total fluorescence; inactive = total fluorescence flat and polarisation flat or rising; no compound was filed as active; the % refers to the polarisation; negative = inhibition;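 further: % of control where 0% means no effect; inhibitors lower the polarisation; unlabelled MLL peptide was the positive control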
TRPV1 PAM – HTS Assay for Compounds that Act as Potentiators of the Vanilloid Receptor 1; Transient receptor potential cation channel subfamily V member 1 (Homo sapiens), Q8NER1; TRPV1-expressing cells, Fluo-8 calcium influx, capsaicin EC20 potentiation; host cell line not named in the record; control for the full effect not named in the record; potentiation, % at 8.33 µM; 320,000 tested, 0.02% active; AID 540277, 2011; active means potentiation above 80%; inconclusive means 30% to 80%; inactive means below 30%; further: 0% is about no effect
Target sequence (Q8NER1 whole entry, looked up): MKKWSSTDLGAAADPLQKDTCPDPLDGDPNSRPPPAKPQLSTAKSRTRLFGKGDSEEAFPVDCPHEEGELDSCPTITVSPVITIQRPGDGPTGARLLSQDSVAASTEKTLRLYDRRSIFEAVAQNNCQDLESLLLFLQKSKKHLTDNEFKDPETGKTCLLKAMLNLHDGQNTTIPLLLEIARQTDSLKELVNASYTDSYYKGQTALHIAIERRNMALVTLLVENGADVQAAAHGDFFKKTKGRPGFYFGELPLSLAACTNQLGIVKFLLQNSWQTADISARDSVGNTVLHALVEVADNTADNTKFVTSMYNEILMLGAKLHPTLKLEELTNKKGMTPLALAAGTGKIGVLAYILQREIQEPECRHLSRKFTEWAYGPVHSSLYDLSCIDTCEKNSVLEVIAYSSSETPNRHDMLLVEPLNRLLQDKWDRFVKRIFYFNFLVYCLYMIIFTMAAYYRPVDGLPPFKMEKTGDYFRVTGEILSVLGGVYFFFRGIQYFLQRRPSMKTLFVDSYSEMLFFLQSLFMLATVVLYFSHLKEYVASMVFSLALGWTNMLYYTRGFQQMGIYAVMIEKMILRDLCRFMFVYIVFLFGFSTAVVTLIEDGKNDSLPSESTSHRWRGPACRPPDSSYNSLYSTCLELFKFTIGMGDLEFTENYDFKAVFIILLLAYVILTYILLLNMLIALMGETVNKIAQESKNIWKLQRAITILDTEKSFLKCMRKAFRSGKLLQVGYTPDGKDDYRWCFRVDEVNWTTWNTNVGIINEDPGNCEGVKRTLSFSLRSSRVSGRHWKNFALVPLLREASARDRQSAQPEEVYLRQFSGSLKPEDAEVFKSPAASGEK
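Fluo-8 calcium influx in TRPV1-expressing cells, kinetic read (ex 480/em 520 nm). Compound added and read 3 min for agonist activity, followed by capsaicin at EC20 final and 2 min further read for enhancement.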
ClpP mod – qHTS Assay for Activators of ClpP; AID 651965, 2013; purified B. subtilis ClpP, FRET peptide cleavage, 20 min; 340,000 tested, 1.9% active; ATP-dependent Clp protease proteolytic subunit (Bacillus subtilis (strain 168)), P80244; Potency, µM (top dose mostly 57.5 µM), for inactives: top-dose activity change, negative = active; active = well fitted falling curve with a large enough effect; inconclusive = small, poorly fitted or top-dose-only effect; inactive = no such curve, though single readings can be large or run the other way; further: potency means the concentration at half of the fitted maximal effect; the source files actives as falling curves though it sought activators and does not explain the sign; nearly all actives have a fitted effect of over 65% in size; many hits overshoot -100%
Target sequence (P80244 whole entry, looked up): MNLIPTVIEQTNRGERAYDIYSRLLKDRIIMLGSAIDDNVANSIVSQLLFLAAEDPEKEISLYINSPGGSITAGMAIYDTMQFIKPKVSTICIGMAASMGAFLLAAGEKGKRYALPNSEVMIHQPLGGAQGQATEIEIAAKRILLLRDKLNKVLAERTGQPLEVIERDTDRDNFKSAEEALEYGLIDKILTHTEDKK
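FRET quenching reversal measured ClpP activation: 10 microg/mL B. subtilis ClpP at pH 8 with the FRET-FV decapeptide, read at 430 nm after 320 nm excitation. The 20-min minus 0-min signal was scaled between DMSO/no-enzyme wells and ADEP (5.8 microM final).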
gsp antag – qHTS for Antagonists of gsp, the Etiologic Mutation Responsible for Fibrous Dysplasia/McCune-Albright Syndrome: qHTS; Potency, µM (titrated, usually from 76.9 µM), for inactives: at the top dose activity change, negative = inhibition, usual class: inhibitors; 340,000 tested, 0.4% active; AID 624288, 2012; gsp-mutant cells, cAMP HTRF, 30 min; control for the full effect not named in the record; active = falling curve of any shape with a large fitted effect; inconclusive = falling curve, mostly with a smaller effect; inactive = flat or rising curve; cell line not stated here;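 further: intracellular cAMP measured with PDE inhibitor Ro 20-1724 present during compound exposure; potency means the concentration at half of the fitted maximal effect; on the % scale 0 is the no-effect control and ±100 the full control effect; nearly all actives have a fitted effect of over 65% in size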
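G418-selected cells were plated in DMEM/10% FBS for 16-24 h at 37C, then treated with compounds plus the PDE inhibitor […] (300 uM solution added) for 30 min at 37C. Intracellular cAMP was measured by HTRF after 30 min lysis at room temperature.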
CtBP-E1A blk – qHTS Assay for Inhibitors of the CtBP/E1A Interaction | CtBP / adenovirus E1A interaction (AlphaScreen) | AlphaScreen GST-E1A/His-CtBP binding, 1536-well; stronger effect = lower value; control for the full effect not named in the record | activity change, % (test concentration not listed) | 340,000 tested, 0.49% active | AID 651724, 2012; in the data active means activity change below about -65%; inconclusive means about -30% to -65%; inactive means above about -30%; further: on the % scale 0 is the no-effect control and ±100 the full control effect; compound concentration not given in the record
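Protein mix (5X: 125 nM each GST-E1A, His-CtBP) was incubated with pinned compound 2 h at 37 deg C in dark, in 50 mM Tris pH 8.0 buffer with 300 mM NaCl. Glutathione donor and nickel acceptor beads followed; AlphaScreen signal read after 1 h.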
gsp agonist – qHTS for Agonist of gsp, the Etiologic Mutation Responsible for Fibrous Dysplasia/McCune-Albright Syndrome: qHTS. AID 624287, 2012. 340,000 tested, 0.13% active. gsp mutant cells, cAMP HTRF, 30 min; control for the full effect not named in the record. Potency, µM (top dose mostly 76.9 µM), for inactives: at the top dose activation (cAMP increase), hits mostly activators; active = well fitted activation curve with a large enough effect; inconclusive = small, poorly fitted or top-dose-only effect, or another doubt; inactive = no such curve, though single readings can be large or run the other way; cell line not stated here;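 further: phosphodiesterase inhibitor Ro 20-1724 added with compounds to block cAMP breakdown; potency means the concentration at half of the fitted maximal effect; nearly all actives have a fitted effect of over 60% in size; about a fifth of the inactives were tested at one dose only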
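Cells in DMEM/10% FBS with G418 were pretreated with compounds in DMSO plus […] (300 uM stock) for 30 min at 37C. cAMP was measured by HTRF (cAMP-d2 plus anti-cAMP antibody-K) after 30 min at room temperature.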
Sfp PPTase inh – qHTS Assay for Inhibitors of Bacillus subtilis Sfp phosphopantetheinyl transferase (PPTase) | Biochemical Sfp PPTase activity, qHTS | 310,000 tested, 3.5% active | Potency, µM, without a hit: max response, negative = inhibition, hits mostly inhibitors; active means well fitted inhibition curve with a large enough effect; inconclusive means small, poorly fitted or top-dose-only effect, or another doubt; inactive means no such curve, though single readings can be large or run the other way;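 further: the enzyme is Sfp with the accession as filed and its product quenches rhodamine fluorescence; potency means the concentration at half of the fitted maximal effect; 0% = enzyme reaction without inhibitor and -100% = no enzyme wells; top concentration of the series not given in the record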
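After 15 min at room temperature with compound, 15 nM Sfp received 5 uM rhodamine-CoA plus 12.5 uM BHQ-2-ybbR (50 mM Hepes pH 7.6, 10 mM MgCl2). Rate came from the fluorescence difference over 30 min, ex 525/em 598 nm.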
An asterisk follows results filed as active; u = inconclusive; x = not tested or not shown; & = joins results of further samples; [ ] = dose if it differs, or a comment.

SMILES	Menin MLL FP FL	TRPV1 PAM	ClpP mod	gsp antag	CtBP-E1A blk	gsp agonist	Sfp PPTase inh
O=C(NCCC1=CCCCC1)C1CCN(S(=O)(=O)c2ccc(Br)s2)CC1	2.7	-6	0.0%	-4%	-1	-21%	23%
COCCN(Cc1cc2cc(C)ccc2nc1Cl)C(=O)Nc1ccccc1OC	2.1	-7	1.6%	7%	x	-65%[inhibitor]	2%
CCCS(=O)(=O)c1c(S(=O)(=O)CCC)c2ccccn2c1C(=O)OC	2.2	8	u	1%	6	-13%	7%
Cc1ccnc(NS(=O)(=O)c2ccc(NC(=O)Cc3c(F)cccc3Cl)cc2)n1	3.1	3	-0.7%	1%	3	0%	17%
COc1ccc(C(=O)N/N=C(\C)c2ccc3c(c2)C2C=CCC2C(c2ccccc2)N3)cc1 (centres undefined)	-1.3	-17	-0.3%	-5%	-28	-2%[15.4 µM]	79µM*
CCOC(=O)c1sc(NC(=O)c2cccc(S(=O)(=O)N3c4ccccc4CC3C)c2)cc1C (centres undefined)	0.3	-3	-20%	-27%	3	-1%	-4%
Nc1c2c(nc3sc4c(c13)CCCC4)-c1ccccc1CC2	0.2	3	-1.6%	-14%	0	1%[15.4 µM]	11%
COc1ccc(C(=O)CC(=O)c2ccccc2O)cc1OC	3.8	15	x	2%	-10	9%	2%
Cc1[nH][nH]c(=O)c1C(c1ccc(N(C)C)c(Br)c1)c1c(C)[nH][nH]c1=O	1.7	-9	x	8%	-12	23%	-19%
Cc1ccc(-n2nnc(-c3cc4ccccc4nc3Cl)n2)cc1	1.3	21	-19%	-29%	3	u	-6%
O=C(NCc1ccccn1)C1CN(S(=O)(=O)c2ccccc2)CCN1S(=O)(=O)c1ccccc1 (centres undefined)	-6.7	4	x	-1%	11	7%[15.4 µM]	29%
CC(C)COC(=O)c1ccc(NC(=O)C2C3C=CC(C3)C2C(=O)O)cc1 (centres undefined)	-1.0	10	-3.0%	-9%	11	0%	19%
COC(=O)c1c(C(=O)OC)c(-c2ccc(C(C)(C)C)cc2)n2c1CS(=O)C2 (centres undefined)	-1.1	0	x	-18%	-20	10%	19%
COc1ccc(CCNC(=O)CSc2ccc(-c3ccncc3)nn2)cc1	1.4	3	0.5%	-2%	x	4%	8%
CCc1nc2c(cnn2-c2ccc(Cl)cc2)c(=O)n1-c1ccc(OC)cc1	3.2	0	-1.1%	-7%	0	-12%	u
Cn1ncc(Cl)c1C(=O)NCC1CCCO1 (centres undefined)	x	1	0.4%	-6%	-1	u	5%
CCN(CC)S(=O)(=O)c1cccc(NC(=O)C2SC(=Nc3ccc(C)cc3C)C(C(=O)NCC3CCCO3)=C2N)c1 (centres undefined)	-0.7	-2	0.0%	-3%	20	-41%[inhibitor]	8%
CC(C)c1cc(NC(=O)CCl)on1	4.1	0	-2.5%	-2%	x	-8%	-16%
NC(=O)C(c1ccc(Cl)cc1)c1ccc(Sc2ccccc2)nn1 (centres undefined)	2.5	21	-1.6%	-13%	0	-30%	6%
O=C(CNC(=O)OCc1ccccc1)OC(c1ccccc1)c1ccccc1	x	x	x	-23%	-8	0%	x
CCOc1ccc(N(CC(=O)NN=C2CCCC2)S(C)(=O)=O)cc1	3.3	9	-0.7%	8%	9	u	11%
CCOC(=O)C1=C(O)/C(=C/c2ccc(OCC(=O)O)c(OC)c2)SC1=Nc1ccc(OC)cc1	x	14	-3.1%	-16%	9	-3%	-8%
CC(=O)N1CCSc2ccc(S(=O)(=O)NCCc3ccc(C)cc3)cc21	x	23	x	7%	6	u	0%
CC(=O)NCCNC(=O)[C@H](Cc1ccccc1)NC(=O)c1cccs1	0.2	-16	u	8%	5	-1%	3%
COc1ccccc1C(=O)C(O)c1ccccc1OC (centres undefined)	2.5	-22	-1.3%	u	6	-2%	24%
COc1ccc(OCc2nc(N)nc(Nc3ccccc3)n2)cc1	-2.9	11	-2.2%	8%	6	6%	16%
CCCCc1ccc(NC(=S)NCCc2ccc(S(N)(=O)=O)cc2)cc1	-0.8	0	x	14%	5	15%	6%
COC(=O)c1ccccc1NC(=O)c1cccc(NC(=O)c2ccc(Br)o2)c1C	4.2	u	-4.6%	-10%	-28	-11%	13%
CC(C)(C)Cc1c(-c2ccccc2)nc2ccc(Br)cn12	x	x	-1.1%	x	20	-12%	x
CCN(CC)S(=O)(=O)c1ccc(NC(=O)COC(=O)c2cnc(C)cn2)cc1	1.7	2	x	9%	0	u	14%
C=C[C@H](CC(C)C)N(Cc1ccccc1)S(=O)(=O)N(Cc1ccccc1)[C@@H](C=C)CC(C)C	x	x	-2.7%&2.6%	-8%	-10	x	x
COc1cc(/C=N\Nc2nc(-c3cccs3)c(NC(C)=O)s2)ccc1O	5.5	1	x	-2%	-12	8%	u
COc1ccc(Cl)cc1NC(=O)CSc1nnc(CN2CCOCC2)n1-c1ccc(Cl)cc1	4.3	3	-0.4%	-7%	-3	3%	-12%
O=C(NNc1nc2c(F)cccc2s1)C1COc2ccccc2O1 (centres undefined)	11	u	x	1%	3	1%	1%
CC[C@@]12C(=O)N(c3cccc(Br)c3)C(=O)N1[C@H](c1ccc(OC)cc1)[C@@H]1C(=O)N(C(C)(C)C)C(=O)[C@@H]12	x	-4	2.0%	1%	-1	0%	x
O=C(NNc1ccccc1)C(=O)NNS(=O)(=O)c1ccc(CCCl)cc1	0.3	x	-0.1%	-4%	1	20%	31%[activator]
COc1ccc(CCC(=O)N2CCN(c3cccc(C)c3C)CC2)cc1	-0.5	-11	x	-50%	-5	1%[15.4 µM]	9%
Cc1ccc(S(=O)(=O)N2CCCCC2)cc1NC(=O)Cn1cnnn1	-0.5	-6	-3.3%	4%	x	8%	10%
COC(=O)[C@@]1(Cc2ccc(F)cc2)[C@H]2c3cc(C(=O)N4CCCC4)n(Cc4ccccc4)c3C[C@H]2CN1C(=O)c1ccccc1	13	x	-1.2%	x	-13	x	1%
Cc1cc(=O)c(C(=O)Nc2cccc(C(=O)NC3CC3)c2)nn1-c1ccccc1Cl	x	1	-3.8%	-2%	0	-10%	x
NC(=O)CSCc1c(Cl)cccc1Cl	3.2	4	-1.8%	2%	7	4%	12%
COc1cc2[nH]c(=S)n(Cc3ccco3)c(=O)c2cc1OC	6.9	7	-3.5%	13%	-26	13%	-29%
O=C1Oc2ccccc2C(=O)/C1=C/N1CCN(c2ccccc2F)CC1	1.6	3	0.0%	12%	11	-8%[15.4 µM]	20%
CC1(C)Cc2ccccc2-c2nnc(SCC(=O)Nc3ccc4c(c3)OCO4)n21	0.2	x	0.3%	-23%	-25	0%	-1%
COc1ccc(CCNc2oc(COc3ccccc3F)nc2C#N)cc1	0.8	16	-1.5%	-27%	-7	-23%	2%
CC1Oc2ccccc2N(CC(=O)NCc2ccc3c(c2)OCO3)C1=O (centres undefined)	3.5	3	x	x	-7	10%[15.4 µM]	19%
COc1ccccc1N1CCN(CC(=O)Nc2c(C)n[nH]c2C)CC1	1.6	4	1.4%	-3%	8	-6%[15.4 µM]	13%
Cc1nc2ccccc2c(=O)n1/N=C/c1ccccc1O	6.4	-11	-2.2%	-1%	u	11%	-6%
Cn1c(CN2CCN(c3ccc(Cl)cc3)CC2)nc2ccccc21	-2.2	3	-3.1%	4%	-17	7%	8%
CCOC(=O)C(C)n1cnc2c(nnn2-c2cccc(OC)c2)c1=O (centres undefined)	3.2	3	-0.4%	16%	7	0%[15.4 µM]	30%[activator]
O=C(NCc1ccccc1)c1c(O)c2cccc3c2n(c1=O)CCC3	1.7	2	u	8%	4	4%	1%
CCCn1c(=N)c(S(=O)(=O)c2ccc(F)cc2)cc2c(=O)n3ccccc3nc21	x	-11	5.2%	-4%	x	3%	-1%

4 records drawn at random from the list so far:
SMILES	Menin MLL FP FL	TRPV1 PAM	ClpP mod	gsp antag	CtBP-E1A blk	gsp agonist	Sfp PPTase inh
Cn1c(CN2CCN(c3ccc(Cl)cc3)CC2)nc2ccccc21	-2.2	3	-3.1%	4%	-17	7%	8%
CCOC(=O)C(C)n1cnc2c(nnn2-c2cccc(OC)c2)c1=O (centres undefined)	3.2	3	-0.4%	16%	7	0%[15.4 µM]	30%[activator]
O=C(NCc1ccccc1)c1c(O)c2cccc3c2n(c1=O)CCC3	1.7	2	u	8%	4	4%	1%
CCCn1c(=N)c(S(=O)(=O)c2ccc(F)cc2)cc2c(=O)n3ccccc3nc21	x	-11	5.2%	-4%	x	3%	-1%
